Source: PubChem BioAssay
Vif A3G – HIV-1 Vif–A3G interaction blockers – biochemical, TR-FRET, GST-Vif 1-94, biotin-A3G peptide, dose response retest, primary screen (AID 1117319). TR-FRET GST-Vif / biotin-A3G peptide binding; higher % means a stronger effect; test concentration not given here; strong numbers were not always called active. inhibition, %, or IC50 in µM where a hit was titrated. hit rate 0.57% among 260,000;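 active = above the screen mean plus three standard deviations and confirmed in dose response; inconclusive = results disagree or hit not tested in dose response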;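 note: Vif residues 1-94 fused to GST binding biotinylated APOBEC3G peptide 110-148; 0% = full assay without inhibitor and 100% = GST in place of GST-Vif; retest series ran down from 100 µM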
HNF4A DNA FP – change in binding of human HNF4 alpha to DNA; P41235; HNF4a-FITC DNA binding, fluorescence polarization, 1 h; activity change, % at 10 µM; hit rate 0.3% among 360,000; AID 1224865; in the data active = activity change above about 30%, passing the limit was not always enough;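 note: controls were the assay level and a saturating level of protein; the project sought stronger binding though the title names inhibitors; some compounds called inactive have numbers as strong as hits; positive values seem to mean higher polarization but the record does not say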
Target sequence (P41235 whole entry, looked up): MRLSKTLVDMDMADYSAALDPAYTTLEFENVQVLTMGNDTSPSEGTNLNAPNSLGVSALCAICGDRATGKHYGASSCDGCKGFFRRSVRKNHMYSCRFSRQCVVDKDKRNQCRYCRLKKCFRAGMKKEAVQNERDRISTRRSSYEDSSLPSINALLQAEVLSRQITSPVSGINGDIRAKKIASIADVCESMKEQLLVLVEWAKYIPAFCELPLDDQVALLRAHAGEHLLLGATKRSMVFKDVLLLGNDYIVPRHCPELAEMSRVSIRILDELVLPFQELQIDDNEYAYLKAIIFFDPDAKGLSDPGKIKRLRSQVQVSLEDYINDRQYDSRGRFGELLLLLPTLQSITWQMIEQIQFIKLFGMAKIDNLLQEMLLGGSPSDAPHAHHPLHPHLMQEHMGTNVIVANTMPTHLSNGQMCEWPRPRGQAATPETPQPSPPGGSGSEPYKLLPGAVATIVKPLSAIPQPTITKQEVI
AF4-AF9 inh – inhibitors of human MLL-AF4/AF9 interaction. P42568. AlphaScreen, biotin-AF4 peptide binding to FLAG-AF9. inhibition, % at 10 µM. hit rate 0.47% among 350,000;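 active = every replicate reaching a set inhibition limit, whatever the replicate mean, cut at about 25% in these data; inconclusive = mean inhibition reaches that limit but some replicates miss it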;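 note: 0% = plate neutral control median and 100% = total signal loss; the record names both 10 and 1 µM as test concentration; the first replicate is given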
Target sequence (P42568 whole entry, looked up): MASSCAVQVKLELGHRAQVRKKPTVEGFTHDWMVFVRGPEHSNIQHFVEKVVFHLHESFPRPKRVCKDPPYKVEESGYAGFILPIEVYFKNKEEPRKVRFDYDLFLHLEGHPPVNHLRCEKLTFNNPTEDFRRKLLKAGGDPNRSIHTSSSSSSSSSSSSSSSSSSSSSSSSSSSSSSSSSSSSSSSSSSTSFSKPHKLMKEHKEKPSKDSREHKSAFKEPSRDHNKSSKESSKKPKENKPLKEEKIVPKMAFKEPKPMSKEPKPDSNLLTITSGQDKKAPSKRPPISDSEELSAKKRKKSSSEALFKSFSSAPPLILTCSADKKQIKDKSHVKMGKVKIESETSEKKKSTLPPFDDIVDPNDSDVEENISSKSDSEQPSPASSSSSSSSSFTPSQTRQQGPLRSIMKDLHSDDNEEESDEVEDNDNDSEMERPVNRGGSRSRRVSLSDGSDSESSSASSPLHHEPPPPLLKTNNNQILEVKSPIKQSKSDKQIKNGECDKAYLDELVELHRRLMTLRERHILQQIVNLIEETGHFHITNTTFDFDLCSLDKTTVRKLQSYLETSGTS
E coli growth – blocks Escherichia coli growth; OD600, 23 h; active compounds read low; hit rate 0.21% among 330,000; AID 1053175; OD600 absorbance (no concentration beside the values);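 active = OD600 absorbance below the run mean of sample wells minus 3.6 SD, in any replicate, cut at about 0.56 in these data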;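 note: stock transfer was 300 nL into about 60 µL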
rRNA inh HTS – selective bacterial rRNA inhibition in E. coli; E. coli WT GFP vs humanized-ribosome RFP mutants, fluorescence, 24 h; active compounds read low; DMSO median 0, no signal -100; GFP signal change (wild-type ribosome), % (test concentration not listed); hit rate 1.6% among 350,000; AID 720706;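 active = significant combined selectivity score with lowered wild-type GFP, culture density cut under 30%, mutant RFP and density less affected; inactive = any of these conditions unmet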; note: one replicate is shown; some compounds called inactive have numbers as strong as hits
ALR H2O2 inh – inhibitors of human sulfhydryl oxidase ALR. hit rate 3.8% among 290,000. inhibition, % (test concentration not listed). AID 485317. purified ALR, DTT oxidation, H2O2 HRP-luminol luminescence;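 active = mean and each replicate at 75% or more; inconclusive = only one of the two met; inactive = neither met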;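 note: stock transfer was 7.5 nL into about 7.5 µL; 0% = neutral wells and 100% = wells with inactivated enzyme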
FGF22 binding – FGF22 (human) thermal shift binding; Q9HCT0; recombinant FGF22 thermal shift, SYPRO orange fluorescence; percent of sucrose octasulfate shift, DMSO zero; calls only at 9.99 µM; hit rate 1.5% among 340,000; AID 651658;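 active = melting point raised past a set limit in the mean and every replicate; inconclusive = no clear call; three in four hits are not shown here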
rRNA inh HTS OD600 – further read-out of rRNA inh HTS, marked with its call; OD600 change, %; measured here: OD600 growth;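 optical density of the mix in the first replicate; 0 = DMSO median and -100 = no signal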
rRNA inh HTS RFP – second read-out of rRNA inh HTS, no call of its own (marks repeat the call); RFP signal change, %; measured here: RFP humanized mutant strains;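 first replicate; 0 = DMSO median and -100 = no signal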
Numbers without * were called inactive; i = inactive; u = inconclusive; x = not tested or not shown; + = active, no number; & = joins results of further samples. The list is partial; rates above refer to the full screens.

SMILES | Vif A3G | HNF4A DNA FP | AF4-AF9 inh | E coli growth | rRNA inh HTS | rRNA inh HTS OD600 | rRNA inh HTS RFP | ALR H2O2 inh | FGF22 binding
COCC(=O)N1[C@H](CO)[C@H]2c3ccccc3N(C(=O)c3cccnc3)C[C@H]21 | x | x | -1.2 | x | 9 | 23 | 0.9 | x | i
CCCCCCN=C(C)C1=C(O)C(C(=O)OC)C(C)(C)CC1=O (centres undefined) | -4% | 0.0 | x | 0.7 | x | x | x | -5 | x
COc1ccc(C(=O)Nc2cc(C)on2)c(OC)c1 | 6% | -0.9 | 2.1 | 0.59 | -6 | -4 | -9.7 | -6 | i
CCc1nccn1C(=O)c1cnn2c(C(F)F)cc(-c3ccc(C)cc3)nc12 | -2% | -1.4 | -0.8 | 0.7 | -11 | 0 | -5.8 | x | i
O=C(Nc1cccc(S(=O)(=O)NC2=NCCC2)c1)C1CCC1 | x | 0.5 | -1.4 | 0.67 | 8 | 13 | 2.6 | 0 | i
OC[C@@H]1[C@@H](c2ccc(-c3cccc(F)c3)cc2)[C@@H]2CN(Cc3cncnc3)CCCCN12 | x | x | 6.5 | x | -1 | -3 | -1.3 | x | i
Cc1cc(C)nc(NC(=O)CCN2C(=O)c3ccccc3S2(=O)=O)n1 | -4% | 3.0 | 0.3 | 0.63 | 3 | 5 | 1.7 | -1 | i
COC(=O)CSc1nnc(CNC(=O)c2ccccc2F)n1-c1ccccc1 | 9% | 1.6 | -0.9 | 0.7 | -8 | -1 | -1.9 | -1 | i
CCOC1(OCC)OC(c2ccccc2)=C(C#N)C(C=Cc2ccccc2)C1(OCC)OCC (centres undefined) | 0% | 2.1 | 3.4 | x | 16 | 13 | 1.3 | x | i
CC(=O)c1c(C)nn(CC(=O)NC2CCCN(Cc3ccc(CC(C)C)cc3)C2)c1C (centres undefined) | x | -1.2 | -1.5 | 0.71 | 3 | -3 | 1.2 | -2 | i
COc1ccc(OCC(O)CNC(=O)Nc2cc(F)ccc2C)cc1 (centres undefined) | -3% | -0.1 | -1.2 | 0.66 | -6 | -7 | 1.6 | -3 | i
COc1ccc(NC(=O)N(C)C[C@@H]2Oc3c(NC(=O)c4ccncc4)cccc3C(=O)N([C@H](C)CO)C[C@@H]2C)cc1 | x | x | -0.8 | x | 5 | 4 | -2.8 | x | i
Cc1ccc(CN2CCN(CC(=O)N3CCC(C(N)=O)CC3)C2=O)cc1 | x | 8.6 | 41* | 0.73 | 1 | 1 | -3.9 | x | i
Cc1ccc(CNC(=O)C(NS(=O)(=O)c2cccs2)C(C)C)cc1 (centres undefined) | 1% | 6.1 | x | 0.68 | x | x | x | x | x
CCc1nnc(NC(=O)c2cccc(S(=O)(=O)N3CC(c4ccccc4)CC3=O)c2)s1 (centres undefined) | -2% | -0.6 | 2.4 | 0.72 | -6 | -3 | 0.6 | -10 | i
Cc1ccccc1C(=O)NC1CCN(CC(=O)NC2CCCCC2)CC1 | x | 0.9 | 0.5 | 0.67 | 6 | 5 | -3.2 | -3 | i
COc1ccccc1-n1c(SCC(N)=O)nnc1-c1ccccc1 | -1% | -2.2 | x | 0.69 | x | x | x | x | x
CCCn1c(SCC(=O)NCCCN2CCCC2=O)nc2ccccc2c1=O | x | -1.2 | -5.0 | 0.68 | 1 | -8 | -1.3 | x | i
CC(=O)Nc1ccc(N2C(=O)C3C4C=CC(CC4)C3C2=O)cc1 (centres undefined) | 3% | 1.3 | 0.8 | 0.68 | 8 | 12 | -0.5 | -30 | i
COC(=O)[C@]12CCCCC=C1N(Cc1ccccc1)C(=O)[C@H](CC(=O)N1CCN(C(=O)c3ccco3)CC1)C2 | x | -2.6 | -9.7 | x | -16 | -9 | -3.2 | x | i
COc1ccc(CC(NC(=O)c2ccccc2)C(=O)NCC(=O)O)cc1 (centres undefined) | -2% | 3.3 | -12 | 0.69 | -5 | -3 | 0.6 | -5 | i
COc1ccc(Cc2c(-c3ccc(F)cc3)nc3c4ccccc4ccn23)c(C)c1 | x | 10 | 2.9 | x | 0 | 4 | 32 | x | i
C[C@H]1CN([C@@H](C)CO)C(=O)c2cccc(NS(=O)(=O)c3cn(C)cn3)c2O[C@H]1CN(C)C(=O)NC1CCCCC1 | x | x | 1.9 | x | 2 | 4 | -0.1 | x | i
CCOc1ccc2c(c1)/C(=N/N1C(=O)c3ccccc3C1=O)C(=O)N2 | -2% | 4.0 | -0.8 | x | 19 | 17 | 1.4 | x | i
O=C(c1cnn2c(C(F)(F)F)cc(-c3ccc4c(c3)OCO4)nc12)N1CCCCC1 | 2% | -2.1 | x | 0.69 | x | x | x | -6 | x

Four entries drawn at random from those above, as already listed:
SMILES | Vif A3G | HNF4A DNA FP | AF4-AF9 inh | E coli growth | rRNA inh HTS | rRNA inh HTS OD600 | rRNA inh HTS RFP | ALR H2O2 inh | FGF22 binding
COc1ccc(OCC(O)CNC(=O)Nc2cc(F)ccc2C)cc1 (centres undefined) | -3% | -0.1 | -1.2 | 0.66 | -6 | -7 | 1.6 | -3 | i
COCC(=O)N1[C@H](CO)[C@H]2c3ccccc3N(C(=O)c3cccnc3)C[C@H]21 | x | x | -1.2 | x | 9 | 23 | 0.9 | x | i
COc1ccc(Cc2c(-c3ccc(F)cc3)nc3c4ccccc4ccn23)c(C)c1 | x | 10 | 2.9 | x | 0 | 4 | 32 | x | i
COC(=O)CSc1nnc(CNC(=O)c2ccccc2F)n1-c1ccccc1 | 9% | 1.6 | -0.9 | 0.7 | -8 | -1 | -1.9 | -1 | i

Following part:
SMILES | Vif A3G | HNF4A DNA FP | AF4-AF9 inh | E coli growth | rRNA inh HTS | rRNA inh HTS OD600 | rRNA inh HTS RFP | ALR H2O2 inh | FGF22 binding
CN(c1ccccc1)S(=O)(=O)c1ccc(C(=O)Nc2nccs2)cc1 | -3% | -2.9 | -3.0 | 0.78 | 4 | 7 | -0.3 | -4 | i
Nn1c(SCc2ccc(F)cc2)nnc1-c1cccnc1 | -8% | 3.9 | -7.0 | 0.69 | -44 | -39 | -10 | x | i
COc1ccc(CSc2ccc(S(=O)(=O)N3CCCC3)cn2)cc1F | -10% | 2.0 | -0.3 | x | -2 | -11 | 3.2 | x | i
O=C(NCCc1ccccc1)C1CCN(C2CCN(Cc3ccc(CO)o3)CC2)CC1 | u | 2.8 | -16 | 0.65 | 5 | -1 | 5.9 | 0 | i
O=C(O)C[C@H]1C[C@H]2c3cc(NC(=O)CC4CC4)ccc3O[C@H]2[C@H](CO)O1 | x | x | -0.9 | x | 0 | 3 | 0.4 | x | i
COc1ccc(CN2C[C@H](C)[C@@H](CC(=O)NCc3ccccc3)C2=O)cc1 | x | 2.5 | x | x | 0 | 1 | -0.8 | -2 | i
O=C(O)CN1C(=O)/C(=C\c2cc(Br)ccc2OCc2ccccc2Cl)SC1=S | 12% | -1.5 | 4.0 | 0.71 | -33 | -47 | 5.2 | 8 | i
COc1ccc(C)cc1NC(=O)CCCN1C(=S)NC(C)(C)CC1C (centres undefined) | x | -3.3 | x | 0.64 | x | x | x | 7 | x
C[C@@H]1CN([C@@H](C)CO)C(=O)c2cccc(NS(=O)(=O)c3cn(C)cn3)c2O[C@H]1CN(C)Cc1ccc(C(F)(F)F)cc1 | x | x | -2.0 | x | -2 | 6 | -0.5 | x | i
Cc1ccc(-c2ccc3c(c2)O[C@@H](CN(C)C(=O)Nc2ccccc2)[C@@H](C)CN([C@@H](C)CO)S3(=O)=O)cc1 | x | x | 3.7 | x | 0 | -8 | 1.4 | x | +
COc1ccc(Cl)cc1NC(=O)CN(C)C(=O)c1ccc2c(c1)OCCO2 | 0% | -0.8 | 0.8 | 0.68 | 3 | -4 | 1.2 | x | i
COc1ccccc1NC(=O)N(C)C[C@H]1Oc2ncc(C#CCN(C)C)cc2C(=O)N([C@H](C)CO)C[C@H]1C | x | -10 | -5.1&-6.2 | x | 6 | 3 | -2.5 | x | i
Cc1noc(C)c1NC(=O)Nc1ccc2c(c1)C(=O)N([C@@H](C)CO)C[C@H](C)[C@@H](CN(C)C(=O)CCCN(C)C)OCCCC[C@@H](C)O2 | x | x | -2.1 | x | 3 | 6 | -1.1 | x | i
CCNc1ccc(C(=O)OCC)cc1NC(=O)c1cccc(N(C)C)c1 | -5% | 4.5 | 15 | 0.7 | -19 | -16 | 9.1 | 0 | i
COc1ccc(-c2ccc3c(c2)[C@@H]2C[C@H]4[C@@H](C(=O)N2CC3)[C@H](C)ON4C)cc1 | -3% | 4.0 | -1.7 | x | x | x | x | x | i
Cc1ccc(OCC(=O)Nc2ccccc2Sc2ccc(Cl)cc2)c([N+](=O)[O-])n1 | u | 1.4 | x | 0.73 | x | x | x | 2 | x
COc1ccc(N2Cc3ccccc3C2)cc1Cl | u | 3.3 | -5.8 | x | -2 | 9 | -0.2 | -22 | i
C[C@@H]1CN([C@@H](C)CO)C(=O)c2cc(NC(=O)Nc3ccc4c(c3)OCO4)ccc2O[C@@H](C)CCCCO[C@@H]1CN(C)CC1CCCCC1 | x | x | u | x | 0&-12 | -9&16 | 9.3&7.3 | x | i
COc1ccc(C)c2sc(NC(=O)c3cccc(N4C(=O)CCC4=O)c3)nc12 | x | 3.6 | 2.2 | 0.71 | 7 | 7 | -1.4 | -1 | i
O=C(c1cccc2c1C(=O)N(Cc1cccnc1)C2)N1CCN(c2ccccc2)CC1 | -9% | -1.5 | x | 0.77 | x | x | x | 50 | x
CN(C)C(=O)CCc1ccc2c3c([nH]c2c1)[C@]1(C)[C@@H](C(=O)N2CCCCC2)C[C@H](CC(=O)NCC24CC5CC(CC(C5)C2)C4)C(=O)N1CC3 | -1% | 0.4 | 7.2 | 0.69 | x | x | x | x | i
O=C(/C=C/Nc1ccc(F)c(Cl)c1)c1ccccc1 | 8% | 5.6 | -1.3 | 0.66 | 6 | -4 | 1.9 | 0 | i
CC(C)[C@H](NC(=O)[C@@H]1Cc2ccccc2CN1C(=O)OC(C)(C)C)C(=O)NC1CCCC1 | 5% | 1.1 | -1.4 | 0.73 | 3 | 5 | -2.5 | 0 | i
Cc1noc(C)c1NC(=O)N[C@H]1CC[C@H](CCNC(=O)C2CCOCC2)O[C@H]1CO | x | x | -0.9 | x | 6 | 2 | -1.0 | x | i
COc1cc(C(C)=O)ccc1OCC(=O)c1cc(C)n(C2CC2)c1C | 22% | 1.8 | x | 0.67 | x | x | x | 1 | x
Next results follow.
SMILES | Vif A3G | HNF4A DNA FP | AF4-AF9 inh | E coli growth | rRNA inh HTS | rRNA inh HTS OD600 | rRNA inh HTS RFP | ALR H2O2 inh | FGF22 binding
O=C(NCC1CCCN(Cc2ccc3nonc3c2)C1)c1ccc(F)cc1 (centres undefined) | 32% | 2.4 | 5.6 | 0.63 | 8 | 7 | 3.1 | -8 | i
CCOC(=O)C1(C)NC(c2ccc(OC)c(OC)c2)C2C(=O)N(c3cccc(C(C)=O)c3)C(=O)C21 (centres undefined) | 1% | -3.6 | -1.0 | x | 4 | 8 | 1.6 | x | i
CC1(C)OC2OC3C(CN)OC(c4ccccc4)OC3C2O1 (centres undefined) | 3% | -2.3 | 2.5 | 0.64 | x | x | x | x | i
CC(=O)N1CCN(C(C)=O)c2ccccc21 | -10% | -1.8 | 36* | 0.72 | 8 | 14 | -0.6 | x | i
Cc1ccccc1Cn1ccc(NC(=O)c2cnn3c2NC(c2ccccc2)CC3C(F)(F)F)n1 (centres undefined) | 3% | 1.3 | x | 0.74 | x | x | x | 0 | x
CCC(C)NC(=O)C1CCN(S(=O)(=O)c2cccc3cccnc23)CC1 (centres undefined) | 0% | 0.2 | -7.9 | 0.71 | 10 | 11 | 4.1 | 24 | i
Cc1noc(C)c1NC(=O)Nc1cccc2c1O[C@@H](CN(C)Cc1ccncc1)[C@@H](C)CN([C@H](C)CO)C2=O | x | x | -2.1 | x | -1 | 5 | -1.2 | x | i
